Compound activity as filed in PubChem.
YopH PTP inh = YopH tyrosine phosphatase inhibitors, primary screen, biochemical, fluorescence Ex485/Em525; hit rate 0.16% among 140,000; inhibition, %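 (about 10 µM by stock and volumes)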;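 active = inhibition of 50% or more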;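 also: controls were vehicle for no effect and minimum signal wells for full effect; inactives centre near -20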
RecA splice inh = Mtb RecA intein splicing inhibitors, primary screen, biochemical, fluorescence, HTS | Protein RecA (Mycobacterium tuberculosis (strain ATCC 25618 / H37Rv)), P9WHJ3 | cell-free RecA intein splicing | inhibition, %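 (about 9 µM by stock and volumes)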 | hit rate 0.75% among 290,000 | AID 2221, 2009; in the data active = inhibition above about 30%; inconclusive = no clear call, values can overlap the other calls;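 also: 0% = vehicle wells and 100% = reference inhibitor control wells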
Target sequence (P9WHJ3 whole entry, looked up, canonical isoform): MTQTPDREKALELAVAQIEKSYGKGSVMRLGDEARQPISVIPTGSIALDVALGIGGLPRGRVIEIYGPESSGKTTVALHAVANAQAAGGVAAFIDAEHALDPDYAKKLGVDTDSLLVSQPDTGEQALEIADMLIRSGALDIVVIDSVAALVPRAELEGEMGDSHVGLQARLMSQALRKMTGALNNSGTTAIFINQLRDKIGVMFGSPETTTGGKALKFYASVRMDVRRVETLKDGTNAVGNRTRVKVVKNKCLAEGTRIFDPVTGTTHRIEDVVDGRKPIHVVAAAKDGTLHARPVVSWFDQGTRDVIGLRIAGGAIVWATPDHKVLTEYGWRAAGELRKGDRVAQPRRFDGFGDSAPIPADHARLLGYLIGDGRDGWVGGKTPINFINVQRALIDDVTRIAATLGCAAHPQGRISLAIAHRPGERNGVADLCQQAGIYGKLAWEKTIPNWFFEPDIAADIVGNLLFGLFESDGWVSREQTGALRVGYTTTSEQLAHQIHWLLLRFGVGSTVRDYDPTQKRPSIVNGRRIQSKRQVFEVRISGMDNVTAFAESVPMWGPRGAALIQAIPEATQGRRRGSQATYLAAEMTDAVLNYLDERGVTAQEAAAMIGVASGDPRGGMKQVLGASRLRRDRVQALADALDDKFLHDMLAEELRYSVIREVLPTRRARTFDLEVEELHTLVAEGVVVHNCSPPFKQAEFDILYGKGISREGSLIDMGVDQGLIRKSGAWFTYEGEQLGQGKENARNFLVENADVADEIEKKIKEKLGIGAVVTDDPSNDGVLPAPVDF
Mtb growth = M. tuberculosis H37Rv growth inhibitors, H37Rv strain (AID 1626) | inhibition, % at 10 µM, or IC50 in µM where a hit was titrated | M. tuberculosis H37Rv growth inhibition; higher % means a stronger effect | hit rate 0.95% among 220,000;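 active = confirmed in a dose series; inconclusive = inhibition above 80% but not taken into the dose series; inactive = below 80% or under 30% at every dose of the series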;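 also: bacteria incubated seven days before Alamar blue readout; 0% = bacteria only wells and 100% = bacteria with antibiotic wells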
Mtb betalactam = beta-lactam sensitization of Mtb H37Rv, H37Rv | M. tuberculosis H37Rv growth with meropenem, percent inhibition; hits of this screen are not shown here | inhibition, % at 25 µM | hit rate 0.27% among 330,000 | AID 434955, 2010;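 active = about 74% or more and at least 40 points above the plate without the antibiotic, then above 30% in a dose series; inconclusive = first-round hits that could not be retested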;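 also: growth measured after seven days incubation then overnight dye step; 0% = bacteria only wells and 100% = bacteria with antibiotic; twin plates without the antibiotic show which effects depend on it; some results filed as inactive read as strong as hits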
Arbovirus inh = antivirals against arbovirus infection, primary screen, cell-based, full library, 10K replicate subset; arbovirus infection cell-based antiviral screen; inhibition, % at 10 µM; hit rate 0.37% among 200,000; AID 1251, 2008;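 active = inhibition from about 30%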;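 also: bluetongue infection of BSR cells; cell survival read as ATP light after 72 h; 0% = infected wells without compound and 100% = uninfected wells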
Arbovirus inh repeat = recorded beside Arbovirus inh, whose call it bears; inhibition, %; measured here: 10K subset replicate screen; many hits read low in the repeat;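 first of two repeat runs on a subset; 0% = infected and 100% = uninfected wells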
Numbers without * were called inactive.

`CS(=O)(=O)c1ccc(C(=O)OCC(=O)N2CCCc3ccccc32)cc1` gave RecA splice inh 1.5 and Mtb betalactam -3.
For Nc1ccc(C(=O)n2c3ccccc3c3ccccc32)cc1 the results were YopH PTP inh 38, RecA splice inh 3.6, Mtb growth 11%, Mtb betalactam 45 and Arbovirus inh -12.
Screening COc1ccc2cc(C(c3nnnn3C3CCCCC3)N3CCCCCC3)c3nnnn3c2c1 (centres undefined) returned YopH PTP inh -27, RecA splice inh -2.4 and Mtb betalactam 93.
For CCCCC1=CC2=C(c3ccco3)C(=O)C(C)(OC(=O)c3ccc(OC)cc3)C(=O)C2=CN1CC(C)C (centres undefined) the results were RecA splice inh -3.4, Mtb growth -9% and Mtb betalactam -1.
Screening CCOC(=O)c1cc(C(=O)NN)c(=O)[nH]c1C returned RecA splice inh 4.0 and Mtb betalactam 0.
For COc1ccc(N2C(=O)CCC(C(=O)N3CCN(c4ccccn4)CC3)C2c2ccc(F)cc2)cc1 (centres undefined) the results were RecA splice inh 1.1, Mtb growth -12%, Mtb betalactam 0 and Arbovirus inh 0.
COCC(C)NC(=O)CSc1nc2ccccc2n1CCc1ccccc1 (centres undefined) was read as YopH PTP inh -33, RecA splice inh 7.5, Mtb growth -5%, Mtb betalactam -7 and Arbovirus inh -8.
Screening COc1ccccc1CNC(=O)c1ccc(NS(C)(=O)=O)cc1 returned YopH PTP inh 24, RecA splice inh 0.4, Mtb growth -7%, Mtb betalactam 6 and Arbovirus inh 4.
C/C(=N/NC(=O)CNS(=O)(=O)c1ccccc1)c1ccc(Br)cc1 was read as RecA splice inh -3.1 and Mtb betalactam 5.
For CCCCN(CC)CCCNC(=O)c1cc2c(=O)[nH]c3ccccc3c2s1 the results were RecA splice inh -1.9 and Mtb betalactam -4.
For COc1ccccc1NC(=O)c1nnn(CC(=O)Nc2cccc(SC)c2)c1N the results were YopH PTP inh -21, Mtb growth -5%, Mtb betalactam 3 and Arbovirus inh -16.
Screening Cc1cc(S(=O)(=O)N2CCN(c3ncccn3)CC2)ccc1-n1cnnn1 returned YopH PTP inh -21, RecA splice inh 0.9, Mtb growth 11%, Mtb betalactam -3 and Arbovirus inh 4.
Screening O=S(=O)(/N=C(/Nc1ccc(F)cc1F)c1ccccc1)c1ccccc1 returned YopH PTP inh -26, RecA splice inh -0.7, Mtb growth 26%, Mtb betalactam 3 and Arbovirus inh -7.
COc1cc(/C=N/NC(=O)c2nnn(-c3nonc3N)c2C(C)C)ccc1O was read as RecA splice inh -3.5 and Mtb betalactam -1.
`COc1ccc(-n2cccc2/C=C2\C(=N)N3N=C(c4ccco4)SC3=NC2=O)cc1` gave RecA splice inh -2.1, Mtb growth 1%, Mtb betalactam -2 and Arbovirus inh 39*.
For O=C(Nc1ccc(S(=O)(=O)Nc2ncccn2)cc1)c1ccc(S(=O)(=O)N2CCCC2)cc1 the results were RecA splice inh 1.1, Mtb growth 4%, Mtb betalactam 0 and Arbovirus inh 2.
Screening CCOc1ccc(C(=O)NC(C(=O)NCCc2ccc(S(N)(=O)=O)cc2)C(C)C)cc1 (centres undefined) returned RecA splice inh -0.5 and Mtb betalactam -2.
Screening COc1cc(C2Nc3cccc4cccc(c34)N2)ccc1O returned RecA splice inh 14 and Mtb betalactam -1.
For CCOP(=O)(OCC)c1ccc(OP(=O)(c2cccc([N+](=O)[O-])c2)c2cccc([N+](=O)[O-])c2)cc1 the results were RecA splice inh 2.2, Mtb growth -9% and Mtb betalactam 0.
CCOC(=O)c1c(/N=C/c2cccc([N+](=O)[O-])c2O)sc2c1CCC2 was read as RecA splice inh -1.5, Mtb growth -5% and Mtb betalactam 3.
COc1ccccc1N1CCN(C(=O)c2ccc(CS(=O)(=O)c3ccccc3OC)o2)CC1 was read as YopH PTP inh -22, RecA splice inh 2.5, Mtb growth -10%, Mtb betalactam 0 and Arbovirus inh 1.
Screening COc1ccccc1NC(=O)c1cc(Cl)nnc1Cl returned RecA splice inh 4.5, Mtb growth 5%, Mtb betalactam 3 and Arbovirus inh -2.
N#CCCN(C(=O)c1cc2c(s1)-c1ccccc1S(=O)(=O)C2)c1ccccc1 was read as RecA splice inh 1.4 and Mtb betalactam 3.
For Cc1ccc(CC2C(=O)N(C)C(=O)N(C)C2=O)s1 the results were YopH PTP inh -31, RecA splice inh 2.4, Mtb growth -3%, Mtb betalactam -13, Arbovirus inh 81* and Arbovirus inh repeat 1.6*.
Screening COc1ccc2c(=O)c(N3C(=O)c4ccccc4C3=O)coc2c1 returned YopH PTP inh -14, RecA splice inh 6.4, Mtb growth -3%, Mtb betalactam 2 and Arbovirus inh 7.
For CCSc1nc2ccccc2c(=O)n1CCc1ccc(OC)c(OC)c1 the results were RecA splice inh -0.2 and Mtb betalactam 89.
For O=C(/C=C/c1ccc(F)cc1)NC(=S)Nc1ccccc1O the results were RecA splice inh 2.6 and Mtb betalactam 96.
Screening CCCCNC(=O)CN1C(=O)NC2(CCOc3ccccc32)C1=O (centres undefined) returned RecA splice inh -0.1 and Mtb betalactam -2.
Screening Cc1cc(/C(N)=N/OC(=O)Nc2ccccc2)no1 returned RecA splice inh -0.5, Mtb growth 3% and Mtb betalactam 20.
Screening CN(C)C(=O)c1ccccc1NC(=O)Cc1cccc2ccccc12 returned RecA splice inh 0.0 and Mtb betalactam 4.

Compounds from the list above containing a thiophene ring, fused or not:
For CCCCN(CC)CCCNC(=O)c1cc2c(=O)[nH]c3ccccc3c2s1 the results were RecA splice inh -1.9 and Mtb betalactam -4.
CCOC(=O)c1c(/N=C/c2cccc([N+](=O)[O-])c2O)sc2c1CCC2 was read as RecA splice inh -1.5, Mtb growth -5% and Mtb betalactam 3.
N#CCCN(C(=O)c1cc2c(s1)-c1ccccc1S(=O)(=O)C2)c1ccccc1 was read as RecA splice inh 1.4 and Mtb betalactam 3.
For Cc1ccc(CC2C(=O)N(C)C(=O)N(C)C2=O)s1 the results were YopH PTP inh -31, RecA splice inh 2.4, Mtb growth -3%, Mtb betalactam -13, Arbovirus inh 81* and Arbovirus inh repeat 1.6*.

3 compounds already listed, sorted by length of the SMILES, smallest number first.
Screening Cc1cc(/C(N)=N/OC(=O)Nc2ccccc2)no1 returned RecA splice inh -0.5, Mtb growth 3% and Mtb betalactam 20.
For Cc1ccc(CC2C(=O)N(C)C(=O)N(C)C2=O)s1 the results were YopH PTP inh -31, RecA splice inh 2.4, Mtb growth -3%, Mtb betalactam -13, Arbovirus inh 81* and Arbovirus inh repeat 1.6*.
For O=C(/C=C/c1ccc(F)cc1)NC(=S)Nc1ccccc1O the results were RecA splice inh 2.6 and Mtb betalactam 96.

The list continues:
COc1ccc(NC(=O)Nc2c(SC)nsc2SC)cc1 was read as RecA splice inh 1.7, Mtb growth 6%, Mtb betalactam -2 and Arbovirus inh 13.
Oc1[nH]c2c(Cl)cc(Cl)cc2c1N=NC(=S)NCC1CCCO1 (centres undefined) was read as YopH PTP inh -5, RecA splice inh 25, Mtb growth inconclusive, Mtb betalactam 31 and Arbovirus inh -20.
`Cc1cccc(CCNC(=O)C2CCC(CNc3c(N4CCCC4)c(=O)c3=O)CC2)c1` (centres undefined) gave YopH PTP inh -47, RecA splice inh -0.2, Mtb growth 8%, Mtb betalactam -1, Arbovirus inh 6 and Arbovirus inh repeat 2.
Screening O=C(CNc1cccc2ccccc12)N/N=C/c1ccc(OC(=O)/C=C/c2ccco2)cc1 returned YopH PTP inh -24, RecA splice inh 1.3, Mtb growth 39% and Arbovirus inh -15.
Cc1cnc(=O)[nH]c1SCC(=O)c1ccc(F)cc1 was read as RecA splice inh -0.6 and Mtb betalactam 3.
Screening CCC(C)N(C(=O)CCC(=O)Nc1cc(C)on1)C(C(=O)NC(C)(C)C)c1ccccc1Cl (centres undefined) returned RecA splice inh 2.3 and Mtb betalactam -9.
Screening CN(C)C(=O)CCc1nc2sc3c(c2c(=O)[nH]1)CCCC3 returned YopH PTP inh -14, RecA splice inh 0.1, Mtb betalactam -1 and Arbovirus inh 9.
`CC1CCN(Cc2nc(Cl)c3c4c(sc3n2)CCC4)CC1` gave RecA splice inh 1.4, Mtb growth 4%, Mtb betalactam 1 and Arbovirus inh -18.
`CCCC(=O)Nc1cccc(NC(=O)c2ccc([N+](=O)[O-])cc2Cl)c1` gave YopH PTP inh -30, RecA splice inh -3.0, Mtb growth -7%, Mtb betalactam 0 and Arbovirus inh 45*.
Screening Cc1cc(C)c(S(=O)(=O)c2ccccc2F)c(=O)[nH]1 returned RecA splice inh 0.4 and Mtb betalactam 2.
Screening COc1cc(C(=O)NCC(=O)N/N=C/c2ccco2)cc(OC)c1OC returned RecA splice inh -0.7 and Mtb betalactam 2.
`CCc1ccc(OCCn2ccnc2)cc1` gave RecA splice inh 0.2 and Mtb betalactam -2.
`COc1cccc(CN2CCN(Cc3[nH]c4ccccc4c3C)CC2CCO)c1` (centres undefined) gave RecA splice inh 2.4, Mtb growth 1%, Mtb betalactam 5 and Arbovirus inh -1.
NC(=O)COC(=O)CC12CC3CC(CC(Br)(C3)C1)C2 was read as RecA splice inh 5.1, Mtb growth -1%, Mtb betalactam 2 and Arbovirus inh -1.
For Cc1c(NS(=O)(=O)c2ccc(N=NN(C)C)cc2)c(=O)n(-c2ccccc2)n1C the results were RecA splice inh -2.3 and Mtb betalactam 1.
Screening CCn1c(CNC(=O)c2ccco2)nnc1SCC(=O)Nc1ccccc1Cl returned RecA splice inh -1.3 and Mtb betalactam -10.
O=C(O)C1CC=CCC1C(=O)Nc1ccc2c(c1)CCC2 (centres undefined) was read as RecA splice inh -4.6 and Mtb betalactam -1.
CCOc1ccc(N(CC(=O)NC2CCCC2)S(=O)(=O)c2ccccc2)cc1 was read as RecA splice inh 1.9 and Mtb betalactam -1.
For CCNC(=O)COC(=O)c1cc(C)nc2ccccc12 the results were RecA splice inh 0.2, Mtb growth 3%, Mtb betalactam -7 and Arbovirus inh 10.
CC(=O)Cn1nnc(-c2ccc(C(F)(F)F)cc2)n1 was read as RecA splice inh -1.6, Mtb growth 3% and Mtb betalactam 1.
CCOC(=O)c1sc2nccc(OC)c2c1N=CN(C)C was read as RecA splice inh 1.3, Mtb growth 1%, Mtb betalactam 1 and Arbovirus inh 7.
`Cc1ccc(C)c(S(=O)(=O)NCc2ccc(C(=O)N3CCCCC3C)cc2)c1` (centres undefined) gave YopH PTP inh -16, RecA splice inh -0.4, Mtb growth 3%, Mtb betalactam -5 and Arbovirus inh -8.
For CCCCOc1ccc(C(=O)OCC(=O)Nc2cc(C)c(C)cc2[N+](=O)[O-])cc1 the results were YopH PTP inh -24, RecA splice inh -1.1, Mtb growth 6%, Mtb betalactam 4 and Arbovirus inh -8.
Cc1oc(-c2ccc(F)cc2)cc1-c1nn2c(-c3ccoc3C)nnc2s1 was read as RecA splice inh 14, Mtb growth -3% and Mtb betalactam 6.
O=C1c2ccccc2S(=O)(=O)N1CCOc1ccc(F)cc1 was read as YopH PTP inh -19, RecA splice inh -7.7, Mtb growth 2%, Mtb betalactam -14 and Arbovirus inh 5.
COc1ccc(S(=O)(=O)/N=C2/C=CC(=O)C(C)=C2C)cc1 was read as YopH PTP inh 11, RecA splice inh 1.7, Mtb growth -4%, Mtb betalactam 51 and Arbovirus inh -7.
For CCN(C(=O)CN(C)Cc1c(F)cccc1Cl)c1c(N)n(Cc2ccccc2)c(=O)[nH]c1=O the results were YopH PTP inh -27, RecA splice inh 1.4, Mtb growth -3%, Mtb betalactam -4 and Arbovirus inh 4.
Cc1ccc(C)c(OCC(=O)OCC(=O)Nc2c(C)nn(-c3ccccc3)c2C)c1 was read as RecA splice inh -3.9 and Mtb betalactam -4.
Screening CN(C)Cc1c(C(=O)N/N=C/c2ccncc2)nnn1-c1nonc1N returned RecA splice inh -2.7 and Mtb betalactam -7.
Screening CC(=O)N/C(=C/c1ccc2c(c1)OCO2)C(=O)NC(Cc1ccccc1)C(=O)O (centres undefined) returned RecA splice inh -2.7 and Mtb betalactam -3.
Cc1nn(-c2ccccc2)c(Cl)c1C(=O)OCC(=O)N(C)c1c(N)n(Cc2ccccc2)c(=O)[nH]c1=O was read as RecA splice inh 0.0 and Mtb betalactam -8.
`Cc1ccc(-c2ccc(S(=O)(=O)N3CCCC3)cc2)cc1` gave RecA splice inh 2.2, Mtb growth 3%, Mtb betalactam -2 and Arbovirus inh 3.

An excerpt; count on the stated rates, not on these rows.
